Bioassay records: PubChem BioAssay, National Center for Advancing Translational Sciences (NCATS)
gsp antag: antagonists of gsp mutant (McCune-Albright syndrome); gsp-mutant cells, cAMP HTRF, 30 min; control for the full effect not named in the record; Potency, µM (top dose mostly 76.9 µM), without a hit: at the highest dose activity change, negative = inhibition, usual class: inhibitors; 340,000 tested, 0.4% active; active = falling curve of any shape with a large fitted effect; inconclusive = falling curve, mostly with a smaller effect; inactive = flat or rising curve; cell line not stated here;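 further: intracellular cAMP measured with PDE inhibitor Ro 20-1724 present during compound exposure; potency means the concentration at half of the fitted maximal effect; on the % scale 0 is the no-effect control and ±100 the full control effect; nearly all actives have a fitted effect of over 65% in size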
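HTRF cAMP measurement after 30 min RT detection following 30 min, 37C compound treatment alongside […] (added as 300 uM solution) in G418-selected cells seeded at 2000/well and grown 16–24 h.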
Menin MLL FP FL: menin-MLL binding inhibition, fluorescein peptide; AID 1766; 290,000 tested, under 10 active; FP activity change, % at 61.4 µM; Fluorescence polarization, fluorescein-MLL peptide displacement from menin; inconclusive = falling polarisation curve, or a change in total fluorescence; inactive = total fluorescence flat and polarisation flat or rising; no compound was filed as active; the % refers to the polarisation; negative = inhibition;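 further: % of control where 0% means no effect; inhibitors lower the polarisation; unlabelled MLL peptide was the positive control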
gsp ag: agonists of gsp mutant (McCune-Albright syndrome). gsp mutant cells, cAMP HTRF, 30 min; control for the full effect not named in the record. 340,000 tested, 0.13% active. Potency, µM (doses to about 76.9 µM), inactives show at the highest dose activation (cAMP increase), most hits filed as activators; active = well fitted activation curve with a large enough effect; inconclusive = small, poorly fitted or top-dose-only effect, or another doubt; inactive = no such curve, though single readings can be large or run the other way; cell line not stated here;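 further: phosphodiesterase inhibitor Ro 20-1724 added with compounds to block cAMP breakdown; potency means the concentration at half of the fitted maximal effect; nearly all actives have a fitted effect of over 60% in size; about a fifth of the inactives were tested at one dose only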
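Cells in DMEM/10% FBS with G418 were pretreated with compounds in DMSO plus […] (300 uM stock) for 30 min at 37C. cAMP was measured by HTRF (cAMP-d2 plus anti-cAMP antibody-K) after 30 min at room temperature.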
ClpP mod: qHTS Assay for Activators of ClpP | ATP-dependent Clp protease proteolytic subunit (Bacillus subtilis (strain 168)), P80244 | purified B. subtilis ClpP, FRET peptide cleavage, 20 min | Potency, µM (series often up to 57.5 µM), for the others: at the highest dose activity change, negative = active | 340,000 tested, 1.9% active | AID 651965, 2013; active = well fitted falling curve with a large enough effect; inconclusive = small, poorly fitted or top-dose-only effect; inactive = no such curve, though single readings can be large or run the other way; further: potency means the concentration at half of the fitted maximal effect; the source files actives as falling curves though it sought activators and does not explain the sign; nearly all actives have a fitted effect of over 65% in size; many hits overshoot -100%
Target sequence (P80244 whole entry, looked up): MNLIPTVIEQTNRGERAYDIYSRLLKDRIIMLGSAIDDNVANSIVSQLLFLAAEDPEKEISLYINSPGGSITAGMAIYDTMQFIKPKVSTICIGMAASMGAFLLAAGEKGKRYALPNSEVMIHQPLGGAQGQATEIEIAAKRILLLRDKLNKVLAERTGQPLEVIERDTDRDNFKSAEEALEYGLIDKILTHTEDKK
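Buffer: 100 mM Tris/HCl pH8, 100 mM KCl, 0.05% low protease BSA, 2.5% glycerol, 0.01% Tween-20. ClpP 10 microg/mL final; 20 min RT; delta FRET normalized to ADEP and DMSO controls.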
TRPML1 agonist: agonists of human TRPML1 channel | Q9GZU1 | TRPML1-expressing cells, Ca2+ dye fluorescence, FDSS; host cell line not named in the record; reference of the full effect not given here | activation, % (no concentration beside the values) | 410,000 tested, 0.12% active; in the data active = activation above about 50%; inconclusive = about 30% to 50%; inactive = below about 30%; further: 0% is about no effect; the text of the record puts the active cut at 80%
Target sequence (Q9GZU1 whole entry, looked up): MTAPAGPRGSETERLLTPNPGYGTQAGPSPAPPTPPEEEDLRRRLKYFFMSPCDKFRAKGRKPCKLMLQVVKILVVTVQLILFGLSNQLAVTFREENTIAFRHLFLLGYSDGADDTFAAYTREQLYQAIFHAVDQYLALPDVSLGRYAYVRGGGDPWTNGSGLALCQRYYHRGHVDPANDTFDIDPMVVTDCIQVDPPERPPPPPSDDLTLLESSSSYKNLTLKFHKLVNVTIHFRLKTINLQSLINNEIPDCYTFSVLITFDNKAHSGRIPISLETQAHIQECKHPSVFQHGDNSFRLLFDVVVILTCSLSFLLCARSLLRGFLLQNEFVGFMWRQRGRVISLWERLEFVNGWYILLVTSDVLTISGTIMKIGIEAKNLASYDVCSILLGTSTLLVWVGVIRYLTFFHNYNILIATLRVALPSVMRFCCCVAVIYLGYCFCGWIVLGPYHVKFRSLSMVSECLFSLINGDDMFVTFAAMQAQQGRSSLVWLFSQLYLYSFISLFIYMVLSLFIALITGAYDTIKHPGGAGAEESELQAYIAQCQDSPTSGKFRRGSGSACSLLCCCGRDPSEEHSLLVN
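Cells: TRPML1-DL, 1X Tet inducer, ~16 h at 37 degrees C/5% CO2. Dye: ABD Ca8 no-wash + quencher, 45-90 min RT. Read: 10 s baseline, compound add, 110 s agonist phase; 54-4 EC80 (4uM final), 110 s antagonist phase.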
TRPML1 inh: inhibitors of human TRPML1 channel; Q9GZU1; TRPML1-inducible cells, Ca2+ dye fluorescence, FDSS; hits give low values; inhibition of EC80 agonist-evoked calcium signal; activity change, negative = inhibition, % (test concentration not listed); 390,000 tested, 0.02% active; AID 624415; in the data active means activity change below about -50%; inconclusive means about -30% to -50%; inactive means above about -30%;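 further: stimulus is agonist 54-4 at its EC80 concentration; on the % scale 0 is the no-effect control and ±100 the full control effect; compound concentration not given in the record; the text of the record puts the active cut at -80%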
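TRPML1-DL cells, Tet-induced overnight (~16 h, 37 °C) at 1,500 cells/well, were loaded with Ca8 no-wash dye plus quencher for 45-90 min at room temperature. Compounds were pinned during FDSS kinetic reading; agonist 54-4 at EC80 (4 uM final) then added.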
* marks the source's active call; other numbers are inactive results; ? = inconclusive; / = not tested or not shown; [ ] = dose if it differs, or a comment.

Structure,gsp antag,Menin MLL FP FL,gsp ag,ClpP mod,TRPML1 agonist,TRPML1 inh
CCCCc1noc(-c2c(-c3ccccc3Cl)noc2C)n1,-1%,0.4,7%[15.4 µM],0.6%,0.6,3
O=C(NCc1ccccc1Br)c1ccncc1,12%,-1.8,7%,-0.6%,-0.3,3
Cc1cn(C2CC(OC(=O)C(C)C)C(CO)O2)c(=O)[nH]c1=O (stereo unspecified),12%,/,6%,-0.9%,1.5,18
COc1cc(C(=O)NCc2nnc(SCC(=O)NC3CCCCC3)o2)cc(OC)c1OC,11%,/,?,-2.8%,-0.7,3
N#Cc1nc(COc2ccccc2)oc1N1CCN(c2cccc(Cl)c2)CC1,-11%,0.8,-21%,-3.0%,3.5,15
COc1ccc(Br)cc1CNC(=O)CN1C(=O)CCCc2ccccc21,/,/,/,-25%,1.1,-5
COc1ccc(CC(=O)OCc2cc3ccccc3[nH]c2=O)cc1,8%,-1.4,17%,-12%,0.7,0
Cc1ccc(N/C=C(\C#N)c2ccc(OCCCF)cc2)cc1,1%,-0.1,-6%[15.4 µM],-0.8%,1.0,8
Cc1nc2oc3c(NCc4ccccc4)ncnc3c2c2c1COC(C)(C)C2,8%,-1.0,-2%,26%,0.5,29
O=C(c1ccc(F)cc1)N1CCOCC1,5%,-0.4,-21%,0.4%,0.5,-3
CC1CCCN(CCOCCOc2ccccc2-c2ccccc2)C1 (stereo unspecified),19%,1.1,-44%[inhibitor],-0.5%,0.1,-12
Cc1nc2ccccc2n1C1CCN(CC(=O)Nc2ccccc2Br)CC1,?,-7.3,?,/,5.0,31
CN1CCN(c2nc(-c3ccccc3)nc3c2oc2ccccc23)CC1,11%,-6.0,25%,-4.8%,-0.6,-9
CC(C)c1ccc(/C=C2\SC(=O)N(CC(=O)NC3C=CS(=O)(=O)C3)C2=O)cc1 (stereo unspecified),-15%,0.9,-3%,-5.1%,0.0,-7
COc1cccc(C(=O)Nc2cccc(C(=O)OCc3cc(=O)n4nc(C(C)C)sc4n3)c2)c1,/,/,/,-4.0%,1.0,-13
Cc1c(C(=O)N2CCN(C(=O)c3ccccc3)CC2)oc2ccc(F)cc12,-7%,/,-118%[inhibitor],-1.2%,-0.4,-3
S=C(Nc1cccc(Cl)c1Cl)NC1CCN(Cc2ccccc2)CC1,2%,/,15%,0.6%,4.2,5
COc1ccc(C/C(O)=C(\C#N)c2nc3ccccc3[nH]2)cc1OC,7%[15.4 µM],1.5,-33%[inhibitor],-2.1%,1.8,20
O=C(c1ccco1)N1CCN(C(=O)c2sccc2-c2ccccc2)CC1,-14%,1.1,?,0.2%,-0.6,-7
COc1ccc(/C=C/C(=O)Nc2ccccc2C(F)(F)F)cc1,12%,6.5,-14%,0.1%,1.9,1
Cc1ccc(CNC(=O)C(=O)NCC(c2cccs2)S(=O)(=O)c2cccs2)cc1 (stereo unspecified),/,/,/,1.1%,0.7,24
Nc1cc(=O)[nH]c(SCc2nnc(-c3ccccc3)o2)n1,12%,0.2,?,-1.7%,-1.3,14
CCC(=O)NC1=C(Cl)C(=O)C(NC(=O)CC)=C(Cl)C1=O,?,-4.6,-48%[inhibitor],2.2%,-0.5,3
COc1ccc(C(=O)OCC(=O)c2cc(OC)ccc2OC)c(OC)c1,4%,?,-42%[inhibitor],-4.2%,2.9,11
O=C(Nc1cccnc1)c1ccc(S(=O)(=O)N2CCCCCC2)cc1,3%,0.9,-33%[inhibitor],-1.8%,-0.3,5
Cc1c(NS(=O)(=O)c2ccc(Cl)c(C(=O)OC(C)C(=O)N3CCOCC3)c2)c(=O)n(-c2ccccc2)n1C (stereo unspecified),8%,3.4,1%,/,0.5,4
Cc1nc(Cc2nnc(SC(C)C(=O)N3c4ccccc4NC(=O)C3(C)C)o2)cs1 (stereo unspecified),9%,/,0%,0.9%,-1.3,8
COc1cccc(CNC(=O)c2ccc(C)c(S(=O)(=O)N3CCOCC3)c2)c1,11%,/,-24%,0.8%,0.2,-10
O=S(=O)(c1ccc(Cl)cc1)N1CCC(O)(c2cccnc2)CC1,3%,-0.2,-11%,-15%,0.0,-1
COc1ccc(C(=O)OCC(=O)N2CCOCC2)cc1S(=O)(=O)N1CCOCC1,7%,/,7%,1.5%,-0.4,2
COc1ccc(N2CCN(c3ccc(Cl)nn3)CC2)cc1,-6%,-0.6,6%,2.3%,-0.8,9
CCOc1ccc(CN2CCCC(N3CCN(c4ccc(OC)cc4)CC3)C2)cc1 (stereo unspecified),11%,-2.5,?,-4.3%,-0.7,-3
N/C(=N\c1nc2c(c(=O)[nH]1)CCC2)Nc1ccccc1,3%,1.2,-31%[inhibitor],/,-0.7,9
CC(NC(=O)COC(=O)CCc1ccc(S(=O)(=O)N2CCOCC2)cc1)C1CC2CCC1C2 (stereo unspecified),-32%,3.9,0%,-2.3%,0.0,17
COC(=O)c1[nH]c2cc(OC)c(OC)cc2c1NC(=O)c1cccc(OC)c1,-3%,-0.3,-12%,-4.7%,1.4,-12
CCOCc1cc(C2NC(=O)NC(C)=C2C(=O)OCC)ccc1OC (stereo unspecified),9%,0.1,-2%,-0.4%,0.2,32
CC(=O)Nc1ccc(NC(=O)C2CCCCC2C(=O)O)cc1 (stereo unspecified),13%,2.8,-17%,1.3%,5.0,1
CCOc1ccc(CCNC(=O)COC(=O)COc2ccc(Cl)cc2)cc1OCC,3%,/,-6%[15.4 µM],/,0.7,11
Cc1oc2ncn(CC(C)C)c(=O)c2c1C(=O)NCCCN(C)Cc1ccccc1,/,/,/,1.1%,-0.9,-6
Cc1ccc(C)c(S(=O)(=O)NC(CCC(N)=O)C(=O)O)c1 (stereo unspecified),-10%,-5.8,-37%[inhibitor],-0.5%,-0.3,19
O=C1NC(SCCCF)=N/C1=C/c1ccc(-n2cncn2)cc1,2%,4.2,-2%[15.4 µM],/,0.8,22
Cc1nc(/C=[N+](\[O-])C(C)(C)/C=N/O)n(O)c1C,-1%[15.4 µM],0.1,?,-3.1%,0.1,-9
O=C(Oc1ccc(-c2nnco2)cc1)c1ccco1,1%,/,-10%[15.4 µM],/,-0.2,-9
Cc1ccc(OCC(O)CN2CCCC2)cc1 (stereo unspecified),11%,-1.3,-11%[15.4 µM],-0.5%,0.0,17
CNCC(O)CN1CCN(c2ccccc2OC)CC1 (stereo unspecified),15%,-6.3,3%,/,0.6,-8
CC(C)(C)c1ccc(C(=O)NCCC(=O)NCc2cccs2)cc1,1%,0.5,-14%,-2.0%,0.7,0
CCc1ccccc1NC(=O)Nc1cc(C(=O)NCc2ccc(OC)cc2)ccc1N1CCCC1,/,/,/,-2.6%,-0.2,26
COc1ccc(OC(C)C(=O)N2CC(C)OC(C)C2)cc1 (stereo unspecified),3%,1.0,6%,-0.4%,0.6,-4
CCOc1ccccc1NC(=O)C1=C(C)Nc2ncnn2C1c1ccc(NC(C)=O)cc1 (stereo unspecified),/,/,/,?,1.9,-13
Cc1ccc(CNC(=O)CSCc2ccccc2F)cc1,0%,0.6,-11%[15.4 µM],-2.8%,-0.4,-1
Cn1cccc1C(C#N)c1cccc(F)c1C#N (stereo unspecified),-5%,3.4,-5%,/,0.2,1
CCOc1nc(NCCO)nc(Nc2cc(Cl)ccc2OC)n1,4%,-8.2,16%,-0.2%,2.7,-2
Cc1ccccc1CS(=O)(=O)Cc1ccc(C(=O)NCCCN2CC(C)CC(C)C2)o1 (stereo unspecified),8%,-2.2,13%,0.1%,-0.5,-6
O=C(CC12CC3CC(CC(C3)C1)C2)NCc1ccc(F)cc1,12%,3.0,-3%[15.4 µM],1.1%,-0.2,-6
O=C(NCCc1cn2ccsc2n1)C1CCCCC1,10%,0.1,29%,-2.7%,-0.1,31
Cc1ccc(NS(=O)(=O)c2ccc3[nH]c(=O)[nH]c3c2)c(C)c1,7%,3.1,1%,/,0.2,-2
Cc1ccc(S(=O)(=O)Nc2ccccc2CNc2ncc(Br)cc2Br)cc1,-6%,6.9,-65%[inhibitor],-1.3%,1.8,56
CCCN(CC(=O)Nc1ccccc1C)C(=O)c1ccc(-c2ccc(C(C)=O)cc2)o1,-16%,/,-1%,8.9µM*,-1.0,-15
CCC1NC(=S)NC(C)=C1C(=O)c1ccccc1 (stereo unspecified),2%,3.2,17%,-2.8%,-0.8,0
O=C(CSc1ncccn1)NN=C1CCCCCCC1,7%,0.7,6%,-0.9%,-0.5,-6

Remaining list, next part:
Structure,gsp antag,Menin MLL FP FL,gsp ag,ClpP mod,TRPML1 agonist,TRPML1 inh
COc1ccc(CCC(=O)N2CCN(S(=O)(=O)c3ccc(OC)c([N+](=O)[O-])c3)CC2)cc1,/,/,-83%[inhibitor],0.1%,0.2,18
CCc1[nH]nc2c1C1(CCOC1C)C(C#N)=C(N)O2 (stereo unspecified),5%,3.6,-13%,-0.4%,0.2,-4
CCCC(=O)Nc1cc2nn(-c3ccccc3)nc2cc1C,/,/,/,2.9%,-0.7,21
COC(=O)C1=C(C)NC=C([N+](=O)[O-])C1c1ccc(OC)cc1 (stereo unspecified),3%,24,-41%[inhibitor],/,-0.1,-3
CC[C@]12c3[nH]c4ccccc4c3CCN1C(=O)C(CC(=O)NCc1ccco1)C[C@@H]2C(=O)N1CCN(C(=O)c2ccco2)CC1 (stereo partly specified),0%,/,/,-2.6%,-0.4,2
Cc1cccc(NC(=O)c2ccc3nc(N4CCOCC4)sc3c2)c1C,-6%,0.6,4%,-7.4%,0.2,-4
Cc1ccc2sc(N(CCCN(C)C)C(=O)c3ccc(Br)s3)nc2c1C,8%,-0.6,5%[15.4 µM],/,0.3,27
O=C(O)c1cccc2c1C(=O)N(c1ccc3c(c1)Cc1ccccc1-3)C2=O,-11%,/,9%,/,0.5,6
COc1cccc(O)c1CN1CCC(C(=O)Nc2ccc(Oc3cccnc3)cc2)CC1,3%,/,-49%[inhibitor],4.7%,2.7,-11
CCN(CC)CCN1C(=O)c2oc3ccccc3c(=O)c2C1c1ccc(F)cc1 (stereo unspecified),11%,0.2,-21%,0.7%,3.5,-16
O=c1[nH]c2ccc(S(=O)(=O)NCCO)cc2[nH]1,-3%,3.8,7%[15.4 µM],/,1.3,21
